Screening data from PubChem.
N370S GC: inhibitors or activators of N370S glucocerebrosidase for Gaucher disease; P04062; N370S GC spleen homogenate, 4MU-glucoside fluorescence; Potency, µM (doses to about 59.4 µM), for inactives: at the top dose activity change, negative = inhibition, actives largely listed as inhibitors; hit rate 0.092% among 330,000; AID 2101;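 note: 0% = full enzyme activity and -100% = no enzyme basal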
TDP1 inh: TDP1 (human) enzyme inhibition; Q9NUW8; recombinant TDP1, AlphaScreen DNA substrate cleavage; Potency, µM (doses to about 130 µM), inactives show top-dose activity change, negative = inhibition, usual class: inhibitors; hit rate 0.28% among 350,000; AID 485290; note: nearly all actives have a fitted effect of over 40% in size
Target sequence (Q9NUW8 whole entry, looked up): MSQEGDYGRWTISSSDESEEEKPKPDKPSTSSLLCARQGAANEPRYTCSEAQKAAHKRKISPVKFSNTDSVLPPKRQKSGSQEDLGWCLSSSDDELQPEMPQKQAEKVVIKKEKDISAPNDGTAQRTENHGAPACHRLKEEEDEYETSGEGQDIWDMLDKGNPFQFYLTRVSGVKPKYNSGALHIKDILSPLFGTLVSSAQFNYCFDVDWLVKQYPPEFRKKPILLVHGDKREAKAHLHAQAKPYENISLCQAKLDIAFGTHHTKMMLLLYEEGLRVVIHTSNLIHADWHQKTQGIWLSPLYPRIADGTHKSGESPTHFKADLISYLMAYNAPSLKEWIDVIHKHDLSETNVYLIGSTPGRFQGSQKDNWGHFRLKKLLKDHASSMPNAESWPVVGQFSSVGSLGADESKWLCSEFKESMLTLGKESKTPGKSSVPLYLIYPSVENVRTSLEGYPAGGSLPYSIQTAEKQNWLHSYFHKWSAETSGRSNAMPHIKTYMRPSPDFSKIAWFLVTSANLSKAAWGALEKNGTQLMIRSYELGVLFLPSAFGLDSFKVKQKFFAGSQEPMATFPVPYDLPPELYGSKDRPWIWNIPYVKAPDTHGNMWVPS
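AlphaScreen read-out: signal falls as enzyme removes the 3' tyrosine-FITC from a 5'-biotinylated DNA oligo (15 nM, 5 min, RT). Enzyme was E. coli-made recombinant Tdp1 at 1 nM, exposed to compound for 15 min beforehand; beads 10 ug/ml, 10 min.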
The depositor's hits bear a star; ? = inconclusive; . = no result given; & = joins results of further samples; [ ] = remark or other dose. Calls come from the whole dose curve; as a rule, active = well fitted curve in the direction sought with a large enough effect; inconclusive = small, poorly fitted or top-dose-only effect, or another doubt; inactive = no such curve, though single readings can be large; an effect the other way counts as inactive or inconclusive. Unless noted, % is set by controls: 0 for no effect and ±100 for the full control effect; potency is the fitted concentration of half-maximal effect. Some of the compounds tested, and most or all hits are left out here.

N370S GC	TDP1 inh	canonical_smiles
-1%	3%	CCOc1ccccc1CNc1ccc(N2CCOCC2)c(C(=O)O)c1
-4%	7%	COc1cccc(NC(=O)COC(=O)c2cc(S(=O)(=O)N3CCOCC3)ccc2C)c1
1%	4%	COc1cc(NS(=O)(=O)c2ccc(NC(=O)C3CCCO3)cc2)nc(OC)n1 (stereo unspecified)
8%	-2%	CCN(CC)C(=O)CN(C#N)c1nc(NC(C)C)nc(NC(C)C)n1
2%	0%	COc1cc(C(=O)NC(CCSC)C(=O)OCC(=O)C(C)(C)C)cc(OC)c1OC (stereo unspecified)
-8%	3%	Cc1oc(-c2ccccc2F)nc1CSCC(=O)NC1CCCC1
-5%	5%	O=[N+]([O-])c1cc(Oc2cccnc2)cc([N+](=O)[O-])c1
0%	0%	O=C(O)c1ccc(Nc2nc3c(s2)CCCC3)cc1
-13%	-3%	Cc1cc(C(=O)OCC(=O)c2cccs2)c2ccccc2n1
1%	0%	COCCCn1c(=S)[nH]c2ccc(N3CCOCC3)cc2c1=O
-3%	2%	CCOc1ccccc1NC(=O)C1CCCN(S(=O)(=O)c2ccccc2)C1 (stereo unspecified)
-14%	5%	CN(Cc1cnccn1)Cc1c(C(=O)N2CCc3ccccc3C2)nc2ccc(Cl)cn12
9%	8%	CCCn1c(/C=C/c2ccco2)nc2ccccc21
10%	-4%	CC12CCC(C(=O)NCc3ccc4c(c3)OCO4)(OC1=O)C2(C)C (stereo unspecified)
25%	4%	CCCc1cc(=O)[nH]c(SCC(=O)c2c(C)[nH]c3ccccc23)n1
13%	-1%	CC(C)(C)OC(=O)N1CCC(c2c(C(=O)O)cnn2-c2ccccc2Cl)CC1
-8%	.	O=C(CN1C(=O)COc2ccccc21)N1CCCC1
12%	-9%	CCc1ccc(NS(=O)(=O)c2ccc3[nH]cc(C(=O)N4CCCCC4)c(=O)c3c2)cc1
0%	.	COCc1cc(=O)n2[nH]c(-c3ccsc3-n3c(C)ccc3C)cc2n1
-1%	7%	S=C(c1ccc(N2CCCC2)c(Br)c1)N1CCCCC1
-1%	.	COc1c(S(=O)(=O)NCCCN2CCOCC2)ccc(Cl)c1Cl
.	0%	Cc1ccc(N(CC(=O)Nc2cc(Cl)ccc2Oc2ccccc2)S(C)(=O)=O)c(C)c1
-1%	2%	COC(=O)CC1=C(C(=O)OC)C(c2cccs2)C(C#N)=C(N)O1 (stereo unspecified)
2%	3%	CCOc1ccc(Nc2cc(=O)n(C)c(=O)n2C)cc1
-6%	8%	Cc1cc(=O)n(CCc2ccccc2)c(O)c1C#N
.	1%	Cc1ccc(N2CCN(S(=O)(=O)c3nnc(NC(=O)c4ccc(C(C)C)cc4)s3)CC2)cc1
-7%	-3%	CCOc1ccccc1CN1CCN(S(=O)(=O)CC)CC1
2%	4%	CC1CCN(C(=O)CSc2ccc(-c3ccccc3)nn2)CC1
-3%	79µM*	Cc1ccc(CC(=O)CCc2ccccc2)cc1
2%	-5%	Cc1cccc(C)c1OCCOCCN1CCN(C)CC1
-14%	20µM*	COc1ccc(/C=C2\C(=O)NC(=S)N2C(=O)c2ccc(F)cc2)cc1
5%	3%	Cc1csc(NC(=O)C2CCCCN2S(=O)(=O)c2ccccc2)n1 (stereo unspecified)
12%	-3%	CCn1c(Cc2ccccc2)nnc1SCC(=O)Nc1ccccc1
-2%	3%	CCOc1ccc(CNC(=O)C2CCC(=O)N2C2CCCC2)cc1OC (stereo unspecified)
-5%	9%	Cn1c(=O)c2c(nc(-n3ccnc3)n2Cc2ccccc2)n(C)c1=O
4%	-1%	Cn1c(CC2C(=O)Nc3ccc(Br)cc32)nc2ccccc2c1=O (stereo unspecified)
6%	-2%	NC1=NS(=O)(=O)NC1c1ccc(Cl)cc1 (stereo unspecified)
5%	.	COc1ccc(NC(=O)C2CCC(CNc3c(N4CCCCC4)c(=O)c3=O)CC2)c(OC)c1 (stereo unspecified)
7%	.	CCC1C(=O)C(CC)C(c2ccccc2)NC1c1ccccc1 (stereo unspecified)
-2%	.	CC(O)[C@@H](NC(=O)C1CCC(CNC(=O)[C@H](Cc2ccccc2)NC(=O)OC(C)(C)C)CC1)C(=O)O (stereo partly specified)
-23%	4%	Cc1nc2ccccn2c1C(=O)NNC(=O)Nc1ccccc1
-1%	4%	O=C(CN1CCN(Cc2ccc(Cl)cc2)C1=O)NCCCN1CCOCC1
2%	-8%	COc1ccc(CNC(=O)COC(=O)Cc2ccsc2)cc1
-13%	4%	CSc1ccc(C(=O)C2CCCN(C(=O)c3csc(C(C)=O)c3)C2)cc1 (stereo unspecified)
12%	1%	CCOC(=O)N1CCC(NS(=O)(=O)c2ccc3c(c2)oc(=O)n3C)CC1
-5%	-4%	Cc1ccccc1N=C1SCCN1C(=O)CN1C(=O)NC2(CCCC2)C1=O
6%	6%	CC1CCCCN1C(=O)Cn1cc(C#N)c2ccccc21 (stereo unspecified)
-9%	2%	CCOc1ccc(C(C)=O)cc1CSc1nnc(-c2cccs2)n1CC1CCCO1 (stereo unspecified)
9%	3%	Cc1ccc(-c2nnc(SCC(=O)NCC3CCCO3)n2C)cc1 (stereo unspecified)
5%	.	Cc1ccc2oc(C(=O)N3CCN(CC(=O)NC(C)C)CC3)c(C)c2c1

Continued:
N370S GC	TDP1 inh	canonical_smiles
-2%	0%	Cc1ccccc1S(=O)(=O)c1c(C)cc(-c2ccccc2)[nH]c1=O
0%	8%	O=C(Nc1cccc(S(=O)(=O)NC2=NCCCCC2)c1)c1cc(-c2ccncc2)nc2ccccc12
5%	5%	Cc1ccc(Cn2c(-c3nonc3N)nc3ccccc32)cc1
-27%	0%	O=C(NCCN1CCOCC1)c1cccnc1SCc1ccccc1Cl
8%	0%	C[C@@H](C(=O)OCC(=O)Nc1cc(S(=O)(=O)N2CCOCC2)ccc1Cl)N1C(=O)C2CCCCC2C1=O (stereo partly specified)
3%	.	COc1ccc(N(C(=O)c2ccncc2)S(=O)(=O)c2ccc(OC)c(OC)c2)cc1
0%	7%	CCOC(=O)COc1ccc(C(c2c(C)[nH][nH]c2=O)c2c(C)[nH][nH]c2=O)cc1
-7%	.	COc1ccccc1P(=O)(Cc1ccccc1)c1ccccc1 (stereo unspecified)
19%	.	O=C(O)CC/C(=N/NC(=O)CNC(=O)Cc1ccccc1)c1ccccc1
-17%	1%	CS(=O)(=O)Nc1cc2c3c(c1)CCC(=O)N3CCC2
3%	2%	CCOCCCNC(=O)C(NC(=O)c1cnccn1)c1ccc(C)cc1 (stereo unspecified)
-12%	2%	CC(NC(=O)c1ccco1)C(=O)NC(C)c1cc(F)c(Cl)cc1Cl (stereo unspecified)
-8%	35µM*	COc1ccccc1C(=O)NNC(=O)C1CC=CCC1 (stereo unspecified)
8%	6%	CCOC(=O)N1CCC(NC(=O)c2cc(C(=O)Nc3cccc(C(F)(F)F)c3)ccc2CO)CC1
-1%&0%	-3%	COC(=O)CC1c2ccccc2S(=O)(=O)N1Cc1ccccc1 (stereo unspecified)
.	-9%	O=C(CN1C(=O)CC(c2ccco2)Sc2ccccc21)Nc1ccc(C(F)(F)F)cc1 (stereo unspecified)
0%	-2%	CN(C)c1ccc(NC(=O)c2cnsn2)cc1
8%	2%	CCCCn1ccc(=O)c2c(C(F)(F)F)nccc21
2%	.	CCCn1c2ccccc2c2cnn(CC(=O)O)c(=O)c21
?	4%	Cc1ccc(SCCNC(=O)CN2C(=O)c3ccccc3S2(=O)=O)cc1
-1%	6%	Cc1ccccc1CC(=O)N1CCN(S(=O)(=O)c2cccs2)CC1
-17%	3%	N#CCc1ccc(NC(=O)c2cc(S(=O)(=O)N3CCOCC3)ccc2Cl)cc1
-4%	.	O=C(NC(=S)NNC(=O)c1ccccc1F)c1cccnc1
-2%	5%	Cc1ccc(-n2nnnc2-c2cccnc2)cc1
-2%	4%[0.0935 µM]	COC(=O)C(Cc1ccc(O)cc1)NC(=O)CCNC(=O)c1ccco1 (stereo unspecified)
0%	0%	Cc1cccc(NC(=S)N(CCN(C)C)C(C)c2ccccn2)c1 (stereo unspecified)
7%	1%	COc1ccc(C(=O)N/N=C/c2ccc(SC)cc2)cc1
2%	6%	OCCN(CCO)c1nc2ccccc2[nH]1
-6%	6%	CCN(CCCNC(=O)COc1cc(=O)n(CC)c2ccccc12)Cc1ccccc1
-9%	.	CCCC[C@H]1COCCS(=O)(=O)N1Cc1cccc(F)c1
3%	2%	O=C(CSc1ncn[nH]1)N1CCN(c2nnc(-c3ccccc3)c3ccccc23)CC1
-11%	7%	Cn1c(=O)c2c(nc(CN3CCN(c4ccccc4)CC3)n2CCN2CCOCC2)n(C)c1=O
-15%	-3%	C=CCN(Cc1nc(-c2ccc(OC)c(OC)c2)oc1C)C1CCS(=O)(=O)C1 (stereo unspecified)
-7%	3%	CCCc1nnc(SCC(=O)Nc2nc(C)cs2)n1CCOC
0%	2%	CCOC(=O)C1Sc2[nH]c(=O)sc2C(c2ccc(Cl)cc2)C1C(=O)OCC (stereo unspecified)
6%	3%	COc1ccc(Cn2c(=O)[nH]c3cc(C(=O)NCCCN4CCCCCC4)ccc3c2=O)cc1
-9%	.	COc1ccc(CNc2ncc(-c3ccc(Cl)cc3)n2C)c(OC)c1OC
-29%	1%	CCN1CCN(c2ccc(S(=O)(=O)N3CCCCC3)cc2NC(=O)c2cccc(C)c2)CC1
-11%	-9%	CCOc1ccc(OCCC(=O)OCC(=O)N2CCN(S(=O)(=O)c3ccc(C)cc3)CC2)cc1
4%	3%	Cc1cccc(OC2CCN(Cc3nc(CC4CC4)no3)CC2)c1
-3%	6%&10%	CCOc1ccccc1NC(=O)CCc1c(C)nn(-c2ccc(N3CCCCC3)nn2)c1C
1%	3%	Cc1cc(C)c2c(-n3cccc3)c(C(=O)O)sc2n1
-2%	10%	CN(C)CCN(C(=O)CN1C(=O)c2ccccc2C1=O)c1nc2cc3c(cc2s1)OCO3
-4%	-3%	CCOc1ccccc1N1CCN(S(=O)(=O)c2cccs2)CC1
.	0%	COc1ccccc1OCCNC(=O)C1CC(=O)N(c2ccccc2OC)C1 (stereo unspecified)
-9%	5%	O=CN1CCN(C(=O)COc2ccc(Cl)cc2Br)CC1
-7%	2%[56.1 µM]	COCCN(C(=O)CCC(=O)Nc1ccccn1)C(C(=O)NC1CCCC1)c1ccc(OC)cc1 (stereo unspecified)
-15%	0%	CCOC(=O)C(NC(=O)Nc1ccc(C(N)=O)cc1)(c1ccccc1)C(F)(F)F (stereo unspecified)
-9%	.	CCOCCn1c(CN2CCCCC2C)nc2c1c(=O)n(C)c(=O)n2C (stereo unspecified)
.	1%	Cc1ccc2c(c1)N(C(=O)Nc1ccc(Br)cc1F)CCO2

Next section:
N370S GC	TDP1 inh	canonical_smiles
11%	3%	COc1ccc(/C=C(/C#N)C(=O)Nc2ccccc2C)cc1C(=O)O
1%	.	COc1ccc(C2/C(=C(/O)c3ccccc3)C(=O)C(=O)N2CCCN2CCOCC2)cc1 (stereo unspecified)
12%	5%	N/C(=N\OC(=O)Cc1ccccc1[N+](=O)[O-])c1ccccn1
6%	-2%	N/C(=N\OC(=O)CC1CCCCC1)c1ccc(Br)cc1
-2%	.	Cc1cc(C=O)c(O)cc1O
6%	1%	CCCn1nnc(NC(=O)Cc2ccccc2)n1
-5%	-18%	O=C(Nc1ccc(C(=O)O)cc1)/C(=C\c1ccco1)NC(=O)c1ccc(Br)o1

By substructure, those above with a Cl atom.
N370S GC	TDP1 inh	canonical_smiles
-14%	5%	CN(Cc1cnccn1)Cc1c(C(=O)N2CCc3ccccc3C2)nc2ccc(Cl)cn12
13%	-1%	CC(C)(C)OC(=O)N1CCC(c2c(C(=O)O)cnn2-c2ccccc2Cl)CC1
-1%	.	COc1c(S(=O)(=O)NCCCN2CCOCC2)ccc(Cl)c1Cl
.	0%	Cc1ccc(N(CC(=O)Nc2cc(Cl)ccc2Oc2ccccc2)S(C)(=O)=O)c(C)c1
6%	-2%	NC1=NS(=O)(=O)NC1c1ccc(Cl)cc1 (stereo unspecified)
-1%	4%	O=C(CN1CCN(Cc2ccc(Cl)cc2)C1=O)NCCCN1CCOCC1
-27%	0%	O=C(NCCN1CCOCC1)c1cccnc1SCc1ccccc1Cl
8%	0%	C[C@@H](C(=O)OCC(=O)Nc1cc(S(=O)(=O)N2CCOCC2)ccc1Cl)N1C(=O)C2CCCCC2C1=O (stereo partly specified)
-12%	2%	CC(NC(=O)c1ccco1)C(=O)NC(C)c1cc(F)c(Cl)cc1Cl (stereo unspecified)
-17%	3%	N#CCc1ccc(NC(=O)c2cc(S(=O)(=O)N3CCOCC3)ccc2Cl)cc1
0%	2%	CCOC(=O)C1Sc2[nH]c(=O)sc2C(c2ccc(Cl)cc2)C1C(=O)OCC (stereo unspecified)
-9%	.	COc1ccc(CNc2ncc(-c3ccc(Cl)cc3)n2C)c(OC)c1OC
-9%	5%	O=CN1CCN(C(=O)COc2ccc(Cl)cc2Br)CC1
